# Mtb betalactam – beta-lactam sensitization of Mtb H37Rv | M. tuberculosis H37Rv growth with meropenem, percent inhibition; hits of this screen are not shown here | inhibition, % at 25 µM | actives 0.27% (n = 330,000) | AID 434955;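 active = about 74% or more and at least 40 points above the plate without the antibiotic, then above 30% in a dose series; inconclusive = first-round hits that could not be retested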;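 also: growth measured after seven days incubation then overnight dye step; 0% = bacteria only wells and 100% = bacteria with antibiotic; twin plates without the antibiotic show which effects depend on it; some results filed as inactive read as strong as hits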
# Mtb growth – M. tuberculosis H37Rv growth inhibitors, H37Rv strain (AID 1626); M. tuberculosis H37Rv growth inhibition; higher % means a stronger effect; actives 0.95% (n = 220,000); one-dose inhibition, % at 10 µM; IC50 in µM for titrated hits;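 active = confirmed in a dose series; inconclusive = inhibition above 80% but not taken into the dose series; inactive = below 80% or under 30% at every dose of the series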;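 also: bacteria incubated seven days before Alamar blue readout; 0% = bacteria only wells and 100% = bacteria with antibiotic wells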
# Arbovirus anti – arbovirus infection inhibition. arbovirus infection cell-based antiviral screen. inhibition, % at 10 µM. actives 0.37% (n = 200,000);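 active = inhibition from about 30%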;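 also: bluetongue infection of BSR cells; cell survival read as ATP light after 72 h; 0% = infected wells without compound and 100% = uninfected wells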
# YopH PTP inh – blocks Yersinia enterocolitica YopH tyrosine phosphatase. AID 898. actives 0.16% (n = 140,000). fluorescence Ex485/Em525. inhibition, %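 (about 10 µM by stock and volumes)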;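 active = inhibition of 50% or more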;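 also: controls were vehicle for no effect and minimum signal wells for full effect; inactives centre near -20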
# RecA splice inh – blocks M. tuberculosis RecA intein splicing; inhibition, %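 (about 9 µM by stock and volumes)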; cell-free RecA intein splicing, fluorescence; actives 0.75% (n = 290,000); P9WHJ3; in the data active = inhibition above about 30%; inconclusive = no clear call, values can overlap the other calls;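 also: 0% = vehicle wells and 100% = reference inhibitor control wells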
# Target sequence (P9WHJ3 whole entry, looked up, canonical isoform): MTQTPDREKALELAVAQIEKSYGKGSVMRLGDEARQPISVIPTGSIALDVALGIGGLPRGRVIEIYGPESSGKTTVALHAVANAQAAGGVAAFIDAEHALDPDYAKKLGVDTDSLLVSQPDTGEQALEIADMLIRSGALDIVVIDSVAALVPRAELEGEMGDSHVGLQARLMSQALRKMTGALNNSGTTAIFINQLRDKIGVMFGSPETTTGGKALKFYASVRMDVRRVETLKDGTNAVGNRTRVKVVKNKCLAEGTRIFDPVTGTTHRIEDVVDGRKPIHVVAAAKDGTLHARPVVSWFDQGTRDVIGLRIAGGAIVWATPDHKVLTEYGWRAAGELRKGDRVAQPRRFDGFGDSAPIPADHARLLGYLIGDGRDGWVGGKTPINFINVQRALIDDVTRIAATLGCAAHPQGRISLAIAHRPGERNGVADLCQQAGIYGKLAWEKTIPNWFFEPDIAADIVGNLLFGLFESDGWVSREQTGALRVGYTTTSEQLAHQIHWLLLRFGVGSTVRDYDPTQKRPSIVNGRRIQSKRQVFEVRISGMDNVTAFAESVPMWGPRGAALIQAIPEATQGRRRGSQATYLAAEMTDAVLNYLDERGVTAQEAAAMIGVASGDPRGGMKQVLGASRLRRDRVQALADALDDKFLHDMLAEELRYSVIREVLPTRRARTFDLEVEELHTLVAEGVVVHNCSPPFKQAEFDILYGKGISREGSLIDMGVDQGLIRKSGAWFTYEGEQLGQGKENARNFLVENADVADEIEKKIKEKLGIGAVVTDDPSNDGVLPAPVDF
# Arbovirus anti repeat – recorded beside Arbovirus anti, whose call it bears; inhibition, %; measured here: 10K subset replicate screen; many hits read low in the repeat;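 first of two repeat runs on a subset; 0% = infected and 100% = uninfected wells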
# * marks the source's active call; other numbers are inactive results; ? = inconclusive; / = not tested or not shown. This is a subset; rates above refer to the full screens.
SMILES,Mtb betalactam,Mtb growth,Arbovirus anti,YopH PTP inh,RecA splice inh,others
COC(=O)C(C)NC(=S)N1CC2C[C@@H](C1)Cn1c2cccc1=O (some centres undefined),-6.2,/,/,/,0.4,
CC1CCCC(C)N1C(=O)CSc1nc2ccccc2s1 (centres undefined),10.0,2.1%,5.2,-19.5,1.0,
COc1ccc(CNC(=O)[C@@H]2CC=C[C@@H]3CCN(Cc4ccccc4)C(=O)[C@@H]32)cc1,1.5,7.0%,/,/,0.4,
CC(C)CCOc1cccc(OCC(=O)NC2CCS(=O)(=O)C2)c1 (centres undefined),-17.9,-4.3%,8.6,-2.9,-4.5,
FC(F)Oc1ccc(NC(=S)Nn2cnnc2)cc1,-3.8,-2.0%,6.0,/,-4.4,
Cc1nonc1CC(=O)N1CCCC(C(=O)c2ccc(Cl)cc2)C1 (centres undefined),-2.4,-2.3%,5.2,/,-1.6,
CCOC(=O)C1(CCOc2ccccc2)CCN(Cc2ccc(OC)cc2)CC1,-0.5,/,/,/,2.3,
O=C(Nc1ccccc1F)c1coc(=O)c(Br)c1,-6.9,6.0%,-4.6,/,1.7,
O=C(NC(NC(=O)c1ccccc1)c1ccccc1)c1ccccc1,7.6,-4.4%,-9.2,-0.3,2.2,
CCC(=O)CC(c1ccccc1)c1c(O)c2ccccc2sc1=O (centres undefined),-7.7,-15.5%,10.2,-14.7,-4.3,
O=C(CN(Cc1cccs1)S(=O)(=O)c1ccc(S(=O)(=O)NC2CCCCC2)cc1)Nc1ccccc1,-1.3,2.1%,-15.5,2.0,7.6,
CCn1c(Oc2ccc(F)cc2)nc2c1c(=O)n(C)c(=O)n2C,-2.2,-0.1%,24.6,/,-1.0,
COc1cc(-c2nnc3sc(-c4cccs4)nn23)cc(OC)c1OC,3.5,0.2%,-18.8,-46.2,-3.0,
CN1CCN(c2nc3c(c(=O)n(C)c(=O)n3C)n2CCSc2nc3ccccc3s2)CC1,-7.4,2.0%,0.7,/,/,Arbovirus anti repeat=1.2
CCN(CC)CC(=O)Nn1c(C)nc2c(ncn2-c2ccccc2)c1=O,-5.9,-7.8%,/,/,1.6,
COc1ccc(Nc2ncnc3sccc23)cc1OC,2.2,/,/,/,0.6,
COc1cc(/C=N/NC(=O)C(=O)Nc2ccccn2)ccc1O,92.8,?,8.9,7.4,-4.3,
Cc1nc2c(cc1C#N)C(=O)c1ccccc1-2,-1.9,4.6%,2.4,-2.4,-2.0,
COc1ccc(N2CC(C(=O)Nc3nnc(SCC(=O)NC4CCCC4)s3)CC2=O)cc1 (centres undefined),?,/,/,/,0.7,
COc1ccc(C(=O)CSc2nnc(CNC(=O)c3ccc(OC)cc3)n2C)cc1,-4.7,-12.8%,-1.5,-10.2,1.4,
COc1ccc(N(CC(=O)NCc2ccc3c(c2)OCO3)C(=O)c2csnn2)cc1,5.8,/,/,/,1.2,
COc1cc(/C=N/NC(=O)C(=O)NCC2CCCO2)ccc1OCC(=O)N1CCOCC1 (centres undefined),-0.2,-11.7%,7.7,/,0.7,
Cc1c(Cl)c(C(=O)N2CCCc3ccccc32)nn1C,-0.8,-7.5%,9.2,-37.3,-0.3,
CCSc1ccccc1C(=O)NCc1ccco1,10.5,2.5%,2.7,-8.3,-0.2,
O=C1CC(C(=O)N2CCC3(CC2)OCCO3)CN1CCc1ccccc1 (centres undefined),-0.7,-3.5%,8.4,-48.4,0.3,
O=C(Nc1ccc2c(c1)oc1ccccc12)c1ccc2c(c1)OCO2,10.6,3.9%,-2.6,-11.2,-3.1,
CCc1ccccc1N1C(=O)NC(=O)/C(=C\c2cc(C)n(C)c2C)C1=O,4.6,-1.5%,-3.5,-24.7,-0.8,
CC(=O)c1c(C)[nH]c(C(=O)N2CCc3ccccc3C2)c1C,-7.9,-6.5%,-5.2,-27.0,0.4,
Cc1cc(NC(=O)c2cccc(S(=O)(=O)N3CCCCCC3)c2)no1,-2.5,1.6%,-5.2,-15.9,/,
CCN(CC)S(=O)(=O)c1ccc2c(c1)c(=O)c(C(=O)N1CCc3ccccc3C1)cn2C,-18.3,-7.8%,-0.5,10.1,1.6,
COc1cc(/C=N/NS(=O)(=O)c2ccccc2)ccc1OS(=O)(=O)c1ccc(C)cc1,3.8,3.4%,0.4,-21.2,0.6,
COc1ccc(C2CC(c3ccc([N+](=O)[O-])cc3)=NN2C(C)=O)cc1 (centres undefined),2.1,/,/,/,5.2,
O=C(NCc1ccccc1)C(Cc1ccccc1)NS(=O)(=O)c1cccc2nsnc12 (centres undefined),-1.3,-1.1%,-1.7,-16.9,-0.4,
CC(=O)NC1(NC(C)=O)CCN(C)C(c2ccccc2)C1C (centres undefined),31.6,-3.5%,-4.0,-54.8,-2.2,Arbovirus anti repeat=0.3
C=CCSc1nnc(NC(=O)C23CC4CC(CC(NC(C)=O)(C4)C2)C3)s1,-0.7,/,/,/,-1.3,
CC(=O)c1c(C)[nH]c(C(=O)OCC(=O)NCCc2ccc(F)cc2)c1C,-13.2,-1.9%,4.5,-25.5,5.0,
CCNC(=S)Nc1ccc(Cl)c([N+](=O)[O-])c1,35.1,6.0%,13.8,/,1.1,
Cn1cccc1C(C#N)(CC#N)c1cccc(F)c1C#N (centres undefined),-2.0,2.5%,1.2,/,-1.1,
COC(=O)CNC(=O)Cc1c(C)n(C(=O)c2ccc(Cl)cc2)c2ccc(OC)cc12,-2.8,/,/,/,0.5,
CCCc1[nH]nc2c1C(Cc1ccccc1)C(C#N)=C(N)O2 (centres undefined),-4.2,-2.8%,-4.5,-37.6,28.2,
CCOC(=O)C1=C(Nc2cccc(Cl)c2)OCC1=O,5.5,-9.2%,-0.4,-32.7,-0.9,Arbovirus anti repeat=-1.3
CN(Cc1cccc([N+](=O)[O-])c1)Cc1cccc2ccccc12,2.4,/,/,/,15.4,
COc1ccccc1C(=O)Oc1ccc(C(C)C)cc1,83.2,74.6%,6.3,-10.3,7.3,
Cc1ccc(OC(=O)c2sc(Cl)nc2C)cc1C,52.5,65.0%,-6.8,-18.0,2.4,
COc1ccc(-c2csc(NC(=O)c3ccc(C(C)(C)C)cc3)c2C(=O)O)cc1,13.2,/,/,/,19.6,
CN1/C(=C\C(=O)c2oc3ccccc3c2N)C(C)(C)c2ccccc21,-11.9,-11.8%,-5.8,-9.4,-2.0,
COc1cccc(C(=O)CSc2nnc(-c3cccs3)o2)c1,3.6,-8.2%,-1.0,-37.5,1.3,
O=C(Cc1ccccc1)N1CCN(S(=O)(=O)c2ccc([N+](=O)[O-])cc2)CC1,9.4,-3.1%,-0.8,/,-1.5,
CCn1cc(CCCC(=O)NCc2cccc(OC)c2)c2ccccc21,-2.3,/,/,/,5.8,
O=C(NC1CCN(c2ncccn2)CC1)c1c(F)cccc1F,3.0,/,/,/,-1.2,
C=CCOc1nc(N2CCCC2)nc(N2CCCC2)n1,18.5,-3.0%,-1.8,-29.2,0.1,
COc1ccc(CC2(CO)CCN(Cc3cnn(-c4ccccc4OC)c3)CC2)cc1,0.3,9.7%,-10.1,/,-70.0,
COc1ccc(CCNC(=O)NC2CCCCC2)cc1OC,-4.5,-2.1%,-3.4,5.2,-0.6,
CC(C)[C@H](NC(=O)N1CC(=O)Nc2ccccc21)C(=O)N[C@@H](Cc1c[nH]c2ccccc12)C(=O)O,-6.1,/,/,/,2.1,
Cc1c(OCC(=O)NC(Cc2ccc(Cl)cc2)C(=O)O)ccc2c1oc(=O)c1ccccc12 (centres undefined),-4.0,/,/,/,17.5,
CC1(C)CC(=O)C2=C(C1)OC(N)=C(C#N)C2CCc1ccccc1 (centres undefined),-4.8,0.3%,4.9,-19.0,/,
CCOc1ncccc1C(=O)Nc1ccc(F)cc1,-6.7,2.1%,2.3,/,-1.4,
COc1ccc(CNCCc2ccccc2F)c(OC)c1C,3.5,/,/,/,0.6,
CCn1c(SCC(=O)O)nnc1-c1ccccc1,-6.1,-3.7%,3.0,-27.2,-0.1,
Cc1ccccc1-n1c(C)nnc1SCC(=O)NNC(=O)c1ccccc1,0.0,-3.8%,-2.5,-36.9,-0.8,

# Fetched one by one from the list above:
SMILES,Mtb betalactam,Mtb growth,Arbovirus anti,YopH PTP inh,RecA splice inh,others
O=C(Nc1ccccc1F)c1coc(=O)c(Br)c1,-6.9,6.0%,-4.6,/,1.7,
O=C(NCc1ccccc1)C(Cc1ccccc1)NS(=O)(=O)c1cccc2nsnc12 (centres undefined),-1.3,-1.1%,-1.7,-16.9,-0.4,
Cn1cccc1C(C#N)(CC#N)c1cccc(F)c1C#N (centres undefined),-2.0,2.5%,1.2,/,-1.1,
C=CCSc1nnc(NC(=O)C23CC4CC(CC(NC(C)=O)(C4)C2)C3)s1,-0.7,/,/,/,-1.3,
Cc1nonc1CC(=O)N1CCCC(C(=O)c2ccc(Cl)cc2)C1 (centres undefined),-2.4,-2.3%,5.2,/,-1.6,
CN1/C(=C\C(=O)c2oc3ccccc3c2N)C(C)(C)c2ccccc21,-11.9,-11.8%,-5.8,-9.4,-2.0,

# (next part)
SMILES,Mtb betalactam,Mtb growth,Arbovirus anti,YopH PTP inh,RecA splice inh,others
Cc1cccn2cc(CCNS(=O)(=O)c3cccc([N+](=O)[O-])c3)nc12,-2.6,-8.8%,/,/,-0.1,
COc1ccc(C2=NN(C(C)=O)C(c3cccs3)C2)cc1OC (centres undefined),0.8,/,/,/,3.2,
COC(/C=C/Nc1ccc(Br)cc1)=C(C#N)C#N,2.7,-3.6%,-4.5,-14.6,1.0,
CCN(CC)S(=O)(=O)c1ccc(O)c(C(=O)OCC(=O)Nc2ccc(OC(F)(F)F)cc2)c1,3.3,2.4%,-6.5,/,-3.5,
CC(=O)N(Cc1cc(=O)[nH]c2ccccc12)c1ccc(C)cc1,-6.6,0.1%,-3.7,-64.0,-1.0,
COc1ccc(N2C(=O)CC(N(CCc3ccccc3)C(=O)/C=C/C(=O)O)C2=O)cc1 (centres undefined),-1.2,2.4%,-0.9,/,0.8,
O=C(O)c1ccccc1C(=O)NCc1ccccc1,-5.1,-2.1%,0.1,-12.8,-0.6,Arbovirus anti repeat=-1.5
Cc1ccc2[nH]c(O)c(N=Nc3nc4ccccc4s3)c2c1,/,?,/,/,-1.9,
O=C(CNC(=O)c1ccco1)NCC(=O)OCc1ccc(Cl)cc1Cl,-4.7,/,/,/,-1.2,
Cc1ccc2[nH]c(C(=O)NN=C3CCCCC3)c(-c3ccccc3)c2c1,96.5,?,-5.7,/,2.2,
COc1cccc(OCCCOc2ccccc2C(C)C)c1,-7.2,0.0%,21.9,-29.2,6.4,
CC(C)NC(=O)CSc1nnc(-c2ccc(C(C)(C)C)cc2)n1C,-1.1,-5.0%,-1.1,10.5,-0.8,
COc1cc(/C=C2/NC(=O)N(Cc3ccccc3F)C2=O)ccc1O,2.4,8.9%,-7.5,/,/,
COc1ccc(N2CCN(S(=O)(=O)c3ccc(OC)cc3)CC2)cc1,0.9,6.8%,8.2,-23.8,-0.7,Arbovirus anti repeat=-1.9
O=C(c1ccccc1Sc1c(Cl)cccc1[N+](=O)[O-])N1CCOCC1,1.9,-0.6%,4.0,-42.4,-0.2,
Cc1ccccc1-n1c(C)cc(/C=N/Nc2ccc([N+](=O)[O-])cn2)c1C,5.1,5.2%,1.1,-11.4,-2.0,
OC(CNCC1(N2CCCCC2)CCCCC1)COc1ccc(Cl)cc1Cl (centres undefined),-2.9,9.8%,30.2*,/,0.4,
COc1ccc(CCNC(=O)c2cc(=O)c3ccc(C)cc3o2)cc1OC,2.6,/,/,/,-1.3,
CN(C(=S)SCc1ccccc1)C1CCS(=O)(=O)C1 (centres undefined),-8.2,11.9%,10.6,/,-3.0,
O=C(O)c1ccc(NC2=C(Cl)C(=O)c3ccccc3C2=O)cc1,-2.4,9.3%,/,/,97.7*,

# In the list so far, 2 contain a tert-butyl group.
SMILES,Mtb betalactam,Mtb growth,Arbovirus anti,YopH PTP inh,RecA splice inh,others
COc1ccc(-c2csc(NC(=O)c3ccc(C(C)(C)C)cc3)c2C(=O)O)cc1,13.2,/,/,/,19.6,
CC(C)NC(=O)CSc1nnc(-c2ccc(C(C)(C)C)cc2)n1C,-1.1,-5.0%,-1.1,10.5,-0.8,

# Further entries:
SMILES,Mtb betalactam,Mtb growth,Arbovirus anti,YopH PTP inh,RecA splice inh,others
CCOc1ncccc1C(=O)Nc1ccc2c(c1)OCO2,-1.4,3.6%,2.5,/,-1.4,
COc1ccc(CCNC(=O)CN2C(=O)COc3ccc(S(=O)(=O)N4CCOCC4)cc32)cc1OC,-10.5,/,/,/,1.3,
O=C(O)c1[nH]c2ccc(Cl)cc2c1CC(=O)N1CCN(c2ccccc2)CC1,-1.6,-8.3%,11.1,-14.2,-0.6,
COc1ccc(C(=O)NC(=S)NCc2ccco2)cc1OC,15.1,2.1%,10.9,-38.3,1.7,
COc1ccccc1-c1nnc2sc(COc3ccccc3)nn12,3.0,-0.2%,-7.9,-10.4,2.4,
CN(Cc1ccccc1)C(=O)[C@H]1CCC(=O)N1Cc1ccco1,/,/,5.2,-7.9,-2.8,

# Source: PubChem (several laboratories)
